Screening data as filed in PubChem.
Mtb bLac sens = beta-lactam sensitization of Mtb H37Rv; M. tuberculosis H37Rv growth with meropenem, percent inhibition; hits of this screen are not shown here; inhibition, % at 25 µM; 330,000 compounds, 0.27% hits;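 active = about 74% or more and at least 40 points above the plate without the antibiotic, then above 30% in a dose series; inconclusive = first-round hits that could not be retested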;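 note: growth measured after seven days incubation then overnight dye step; 0% = bacteria only wells and 100% = bacteria with antibiotic; twin plates without the antibiotic show which effects depend on it; some results filed as inactive read as strong as hits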
Starred values were filed as active, the others as inactive; ? = inconclusive. These rows are one share of the data; rates above refer to the full screens.

SMILES	Mtb bLac sens
O=C(Nc1cccc(S(=O)(=O)N2CCCCC2)c1)C1CC(=O)N(Cc2ccccc2)C1 (stereo not given)	-9
COc1ccc(S(=O)(=O)N2CCOCC2)cc1NC(=O)C1CCCN1C(=O)c1cccs1 (stereo not given)	1
Cc1nc(SCC(=O)N2CCOCC2)c2c(=O)n(C)c(=O)n(CC(C)C)c2n1	-4
COc1ccccc1CNC(=O)CN1CCN(c2ccc(C(C)=O)cc2)CC1	-2
O=C(CC1CCCC1)Nc1ccc(Cl)c(S(=O)(=O)N2CCOCC2)c1	-10
CC(=O)c1c(C)[nH]c(C(=O)OCc2nnc(-c3ccc([N+](=O)[O-])cc3)o2)c1C	-1
Cn1c2cc(C#N)sc2c2cnn(Cc3ccc(F)cc3)c(=O)c21	-3
CC1CC1C(=O)OCC(=O)NC(=O)c1ccc(C(C)(C)C)cc1 (stereo not given)	2

The listing continues:
SMILES	Mtb bLac sens
COc1ccc(CNC(=O)CN2C(=O)NC(Cc3ccccc3)(c3ccccc3)C2=O)cc1OC (stereo not given)	-3
N#Cc1ccccc1S(=O)(=O)N1CCN(CC(=O)NCC2(N3CCOCC3)CCCCC2)CC1	-1
CN(CC(=O)Nc1ccc(F)cc1)C(=O)COC(=O)/C=C/c1ccccc1[N+](=O)[O-]	-2
CC(=O)Nc1cccc(C(=O)N2CCN(S(=O)(=O)Cc3ccccc3)CC2)c1	-1
CCOC(=O)C1CCN(C(=O)c2cccc(S(=O)(=O)NCc3ccccc3)c2)CC1	5
CSCCC(NC(=O)c1ccco1)C(=O)N1CC(C)OC(C)C1 (stereo not given)	3
Cc1cc(C)n(CC(=O)NNC(=O)c2ccc(S(C)(=O)=O)cc2)n1	-1
Cn1c(N)c(C(=O)c2ccc(Cl)c(S(=O)(=O)N3CCCCCC3)c2)c(=O)n(C)c1=O	-6

Next section.
SMILES	Mtb bLac sens
CC(=O)N1CCN(S(=O)(=O)c2cccc(C(=O)NCc3ccc(F)cc3)c2)CC1	-14
Cc1csc(CNc2ncnc3ccc(-c4ccc5c(c4)OCCO5)cc23)c1	95
COc1ccccc1OCC(=O)NC1CCSc2ccccc21 (stereo not given)	5
COc1ccc([C@H]2CC(=O)C=C(c3cccc(OC(F)(F)F)c3)C2)cc1	51
CCCCN(C(=O)c1ccc2ccccc2c1)c1c(N)n(CCCC)c(=O)[nH]c1=O	4
Cc1cccc(N2CC(C(=O)Nc3cccc(S(=O)(=O)N4CCCCC4)c3)CC2=O)c1C (stereo not given)	-1
O=C(CN1C(=O)NC2(CCOc3ccccc32)C1=O)c1cccs1 (stereo not given)	6
Cc1cc(C(F)(F)F)c2c(C)nn(-c3ccccc3)c2n1	-1

(further entries)
SMILES	Mtb bLac sens
CCCN(C(=O)c1nc2nc(C)cc(C)n2n1)c1c(N)n(Cc2ccccc2)c(=O)[nH]c1=O	-1
CCOC(=O)N1CCN(C(=O)c2ccc3[nH]c(C)c(C)c3c2)CC1	-4
Cc1ccc(NC(=O)COC(=O)CCc2ccccc2)cc1S(=O)(=O)N1CCOCC1	-2
Cc1ccc(S(=O)(=O)N2CCOCC2)cc1C(=O)Nc1ccncc1	-6
COc1ccc2c(c1)OC[C@H]1[C@H]2N2C(=O)c3ccccc3NC(=O)[C@@]2(C)[C@H]1c1ccccc1	46
O=C(NCC(c1ccco1)N1CCCC1)c1cc2cc(Cl)ccc2o1 (stereo not given)	69
COc1ccc(NS(=O)(=O)c2ccc(C(=O)Nc3c(C)n(C)n(-c4ccccc4)c3=O)cc2)cc1	-1
COc1ccccc1OCCC(=O)OCC(=O)Nc1ccc2c(c1)OCCO2	-8

Reformatted with each value named: 2 of the compounds above
SMILES: O=C(NCC(c1ccco1)N1CCCC1)c1cc2cc(Cl)ccc2o1 (stereo not given)
  Mtb bLac sens: 69

SMILES: COc1ccc(NS(=O)(=O)c2ccc(C(=O)Nc3c(C)n(C)n(-c4ccccc4)c3=O)cc2)cc1
  Mtb bLac sens: -1

The list goes on:
SMILES	Mtb bLac sens
COc1ccc(CCC(=O)N2CCN(S(=O)(=O)c3ccc(C)cc3)CC2)cc1	1
O=C(CCC(=O)N1CCN(S(=O)(=O)c2ccccc2)CC1)c1ccc(Br)cc1	-4
Cc1cccc(NC(=O)CNC(=O)CSc2ncccn2)c1C	-4
O=C1c2ccccc2C(=O)N1CCC#Cc1ccc2cc(CCO)oc(=O)c2c1	-2
O=C(Cc1c(F)cccc1Cl)NNC(=O)c1ccco1	3
O=C(Nc1cccc(S(=O)(=O)NC2=NCCC2)c1)c1ccccc1	-10
Cc1ccc(S(=O)(=O)NCCC(=O)OCC(=O)Nc2cccc(Cl)c2)cc1	8
COCC(C)n1c(SCC(=O)Nc2c(C)n(C)n(-c3ccccc3)c2=O)nc2ccccc2c1=O (stereo not given)	2

Next part
SMILES	Mtb bLac sens
COc1cc(C(=O)OCCc2cc3ccccc3c(=O)o2)cc(OC)c1OC	1
O=C(CN1C(=O)C2CCCCC2C1=O)Nc1ccccc1C(=O)O (stereo not given)	-2
CCOc1ccc(S(=O)(=O)N2CCCCC2)cc1NC(=O)CN1C(=O)NC(C)(C2CC2)C1=O (stereo not given)	7
Cc1noc(C)c1COc1cccc(C(=O)N(C)Cc2cccs2)c1	-10
CN(C)c1cccc(C(=O)OCCCC(=O)c2ccc(F)cc2)c1	-2
Cc1cccc(NC(=O)COC(=O)CCc2c[nH]c3ccccc23)c1	99
COc1ccc(C)cc1NC(=O)/C=C/c1ccc(OC)c(S(=O)(=O)N2CCOCC2)c1	-4
Cc1ccc(S(=O)(=O)N2CCC[C@H]2C(=O)OCc2cc(=O)oc3cc(C)ccc23)cc1	1

The list continues:
SMILES	Mtb bLac sens
CCc1ccccc1OCC(=O)NCC1COc2ccccc2O1 (stereo not given)	-6
CCOC(=O)c1sc(NC(=O)C2CC(=O)N(c3ccc4c(c3)OCCO4)C2)nc1C (stereo not given)	56
COc1ccc(CN(C)C(=O)Cc2ccc(S(=O)(=O)N3CCOCC3)s2)cc1OC	2
O=C(COC(=O)c1ccc(C(F)(F)F)cc1)NC(=O)NC1CCCC1	4
COc1ccc(CNC(=O)COC(=O)/C=C/c2cccc(Cl)c2)cc1	1
CCN(CC(=O)Nc1cc(Cl)ccc1C)C(=O)CC1CCCC1	2
O=S(=O)(/N=C(/Nc1cccnc1)c1ccccc1)c1ccc(F)cc1F	6
COc1cc(C(=S)N2CCOCC2)ccc1OS(=O)(=O)c1ccc(C)cc1	-16

(continued)
SMILES	Mtb bLac sens
O=C(NC(=S)NC1CCC(O)CC1)c1ccco1 (stereo not given)	-5
CC(=O)Nc1ccc(C(=O)OCC(=O)N2CCN(C(=O)c3ccco3)CC2)cc1	4
Cc1ccc(-c2csc3ncn(CC(=O)NCC(c4ccco4)N4CCCC4)c(=O)c23)cc1 (stereo not given)	-8
CCOc1ccc(NC(=O)c2ccc(NS(=O)(=O)c3cccs3)cc2)cc1	9
CCN(c1ccccc1)S(=O)(=O)c1ccc(C(=O)NNC(=O)c2ccccc2F)cc1	0
Cc1ccccc1NC(=O)CSc1nnc(CNC(=O)c2ccc3c(c2)OCO3)n1C	-17
CC(C)[C@H](NC(=O)c1ccccc1)C(=O)OCC(=O)Nc1sccc1C(N)=O	-3
O=C(COC(=O)c1ccc(F)c(S(=O)(=O)N2CCOCC2)c1)NCc1ccc(Cl)cc1	-4

The results go on:
SMILES	Mtb bLac sens
CN(C)S(=O)(=O)c1ccc(NC(=O)CN2CCCC2c2ccc3c(c2)OCCCO3)cc1 (stereo not given)	0
C[C@H](CO)N1C[C@H](C)[C@@H](CN(C)S(=O)(=O)c2cccs2)Oc2c(NC(=O)C3CC3)cccc2C1=O	3
CCN(CC)CCOC(=O)C1(c2ccc([N+](=O)[O-])cc2)CCCC1	5
CCN(C(=O)COC(=O)c1cnc(C)cn1)c1c(N)n(Cc2ccccc2)c(=O)[nH]c1=O	-8
Cc1c(C2(O)CCCCC2)[nH]c2cnccc12	-1
Cc1ccc(C)c(C(=O)CCC(=O)N2CCN(c3cccc(C(F)(F)F)c3)CC2)c1	1
Cc1cc(C)cc(NC(=O)COC(=O)c2ccc(CN3CCCC3=O)cc2)c1	-2
COc1ccc(/C=C/C(=O)OCC(=O)NC2CCS(=O)(=O)C2)cc1 (stereo not given)	-1

The list continues.
SMILES	Mtb bLac sens
CC(C)C(=O)N1CCN(S(=O)(=O)c2ccc3ccccc3c2)CC1	3
CC1CC(C)(C)CC2(C1)NC(=O)N(CC(=O)OCc1ccc(Br)cc1)C2=O (stereo not given)	-6
Cc1oc2cc3oc(=O)c(CC(=O)NCC(=O)N[C@@H](C(=O)O)c4ccccc4)c(C)c3cc2c1C	-10
COc1cccc(NC(=O)CN(C)C(=O)c2cn(-c3ccccc3)nc2-c2cccnc2)c1	2
O=C(Cc1c(F)cccc1Cl)Nc1cc(S(=O)(=O)N2CCOCC2)ccc1N1CCCC1	8
C/C=C/COC(=O)C1=C(C)NC(=O)NC1c1ccc2c(c1)OCO2 (stereo not given)	0
COc1cccc(NC(=O)CN(C)C(=O)c2cc(C3CC3)nn2-c2ccccc2)c1	1
O=S(=O)(NNc1ncc(C(F)(F)F)cc1Cl)c1ccccc1	-2

Remaining list, next part:
SMILES	Mtb bLac sens
COc1cc(-c2ccc3sc(-c4ccsc4)c(C#CCO)c3c2)cc(OC)c1OC	?
N#Cc1ccccc1S(=O)(=O)N1CCN(CC(O)CN2CCOCC2)CC1 (stereo not given)	-3
O=C(COC(=O)c1ccc(Cl)nc1)NCCNC(=O)COC(=O)c1ccc(Cl)nc1	-1
Cc1ccc(OCCNCc2ccccc2)c(C)c1	-2
CCOc1ccccc1OCCCC(=O)ON=C(N)c1ccccc1	-5
C=C1[C@@H](O)[C@@H]2O[C@]3(CC[C@H](/C=C/[C@@H](C)[C@@H]4CC(C)=CC5(O[C@H](C[C@@](C)(O)C(=O)OC)CC[C@H]5O)O4)O3)CC[C@H]2O[C@@H]1[C@@H](O)C[C@H](C)[C@H]1OC2(CCCCO2)CC[C@H]1C (stereo not given in full)	-7
C=CCC[C@@H](Cc1ccc(F)cc1)C(=O)OC[C@H](Cc1c[nH]c2ccccc12)NC(=O)[C@H](CC=C)CC(=O)NCCO	6
Cc1ccc(S(=O)(=O)N2CCN(C)CC2c2ccccc2)cc1 (stereo not given)	5

Additional records follow:
SMILES	Mtb bLac sens
C#CCOCCOCCOCCNc1nc(N2CCN(C(=O)CCCCCCCCCCNC(=O)[C@H]([C@@H](C)CC)n3cc(CCCCCN)nn3)CC2)nc(N2CCN(C(=O)CCCCCCCCCCNC(=O)[C@H]([C@@H](C)CC)n3cc(CCCCN=C(N)N)nn3)CC2)n1	86
O=C(Nc1cccc(NC(=O)c2nccc3ccccc23)c1)c1ccco1	8
O=C(CNS(=O)(=O)c1ccc2ccccc2c1)Nc1ccc(F)c(F)c1F	0
CCc1ccc(OC(=O)Cc2ccc(OC)c(S(=O)(=O)N3CCOCC3)c2)cc1	4
CCN(CC(=O)Nc1ccccc1C(F)(F)F)CC(=O)NC1CC1	-1
COC(=O)c1ccccc1S(=O)(=O)N1CCC(C(=O)OCC(=O)NC2CCCCC2C)CC1 (stereo not given)	0
CC(C)NC(=O)N(C)C[C@@H]1Oc2ccc(NC(=O)CCN3CCOCC3)cc2CC(=O)N([C@@H](C)CO)C[C@@H]1C	-5
CCOC(=O)C1CCN(C(=O)C2(NC(=O)Nc3ccc(F)cc3F)CCCCC2)CC1	1

Shown field by field: entries from further up
COc1cc(-c2ccc3sc(-c4ccsc4)c(C#CCO)c3c2)cc(OC)c1OC
- Mtb bLac sens: ?
N#Cc1ccccc1S(=O)(=O)N1CCN(CC(O)CN2CCOCC2)CC1 (stereo not given)
- Mtb bLac sens: -3
O=C(COC(=O)c1ccc(Cl)nc1)NCCNC(=O)COC(=O)c1ccc(Cl)nc1
- Mtb bLac sens: -1

The results go on.
SMILES	Mtb bLac sens
COc1ccc(CC(=O)OCC(=O)Nc2ccc(Cl)cc2C)cc1	2
Cc1cc(C)c(S(=O)(=O)Nc2ncn[nH]2)cc1C	-6
C/C(=N\NC(=O)c1ccc(-n2cnnn2)cc1)c1ccc(C)cc1	-7
COc1cccc(NC(=O)Cc2ccc3ccccc3c2)c1	4
Cc1cccc(OCC(=O)NCC(C)(C)N2CCOCC2)c1	-6
O=C(NC(=S)Nc1cccc(O)c1)C1CCCCC1	-3
COc1ccc(C(=O)c2ccccc2O)c(O)c1	7
CCc1ccccc1NC(=O)CN1CCN(C(=O)COc2ccccc2C#N)CC1	0

Next part:
SMILES	Mtb bLac sens
COc1ccc(NC(C)=O)cc1NC(C)C(=O)Nc1ccc(S(=O)(=O)N2CCCCC2)cc1 (stereo not given)	2
CC1CC(C)CN(C(=O)CN2C(=O)NC(c3ccccc3)(c3ccccc3)C2=O)C1 (stereo not given)	3
COc1cccc(CN(C)C(=O)c2cc(S(=O)(=O)NC3CCCCC3)ccc2C)c1	1
Cc1cc(=O)c2c([nH]1)c(C)cc1[nH]c(C)c(C)c12	7
CC(C)Cc1nnc(NC(=O)CCNC(=O)c2ccccc2Cl)s1	9
CSc1ccccc1NC(=O)CSc1cccc[n+]1[O-]	5
Cc1ccc(NC(=O)CN2C(=O)c3ccccc3C2=O)c(C)c1	-13
Cc1ccc(C(=O)COC(=O)CCS(=O)(=O)c2ccccc2)cc1[N+](=O)[O-]	-4

Following part
SMILES	Mtb bLac sens
CCn1cc([N+](=O)[O-])c(C(=O)NCc2ccc3c(c2)OCO3)n1	-6
O=C(COC(=O)c1cccs1)Nc1cccc(S(=O)(=O)N2CCCCC2)c1	-3
COc1cc(/C=C/C(=O)N(C)CC(=O)Nc2ccccc2Br)cc2c1OCCO2	-6
CC(C)(C)N(Cc1ccccc1)C(=O)COC(=O)c1ccc(S(=O)(=O)N2CCOCC2)cc1	-2
